# Source: PubChem (several laboratories)
# YopH PTP inh = YopH tyrosine phosphatase inhibitors, primary screen, biochemical, fluorescence Ex485/Em525; inhibition, %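 (about 10 µM by stock and volumes)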; YopH tyrosine phosphatase [Yersinia enterocolitica]; 0.16% of 140,000 active;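 active = inhibition of 50% or more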;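 note: controls were vehicle for no effect and minimum signal wells for full effect; inactives centre near -20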
# RecA intein inh = Mtb RecA intein splicing inhibitors, primary screen, biochemical, fluorescence, HTS. inhibition, %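 (about 9 µM by stock and volumes)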. Protein RecA (Mycobacterium tuberculosis (strain ATCC 25618 / H37Rv)), P9WHJ3. cell-free RecA intein splicing. 0.75% of 290,000 active; in the data active = inhibition above about 30%; inconclusive = no clear call, values can overlap the other calls;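 note: 0% = vehicle wells and 100% = reference inhibitor control wells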
# Target sequence (P9WHJ3 whole entry, looked up): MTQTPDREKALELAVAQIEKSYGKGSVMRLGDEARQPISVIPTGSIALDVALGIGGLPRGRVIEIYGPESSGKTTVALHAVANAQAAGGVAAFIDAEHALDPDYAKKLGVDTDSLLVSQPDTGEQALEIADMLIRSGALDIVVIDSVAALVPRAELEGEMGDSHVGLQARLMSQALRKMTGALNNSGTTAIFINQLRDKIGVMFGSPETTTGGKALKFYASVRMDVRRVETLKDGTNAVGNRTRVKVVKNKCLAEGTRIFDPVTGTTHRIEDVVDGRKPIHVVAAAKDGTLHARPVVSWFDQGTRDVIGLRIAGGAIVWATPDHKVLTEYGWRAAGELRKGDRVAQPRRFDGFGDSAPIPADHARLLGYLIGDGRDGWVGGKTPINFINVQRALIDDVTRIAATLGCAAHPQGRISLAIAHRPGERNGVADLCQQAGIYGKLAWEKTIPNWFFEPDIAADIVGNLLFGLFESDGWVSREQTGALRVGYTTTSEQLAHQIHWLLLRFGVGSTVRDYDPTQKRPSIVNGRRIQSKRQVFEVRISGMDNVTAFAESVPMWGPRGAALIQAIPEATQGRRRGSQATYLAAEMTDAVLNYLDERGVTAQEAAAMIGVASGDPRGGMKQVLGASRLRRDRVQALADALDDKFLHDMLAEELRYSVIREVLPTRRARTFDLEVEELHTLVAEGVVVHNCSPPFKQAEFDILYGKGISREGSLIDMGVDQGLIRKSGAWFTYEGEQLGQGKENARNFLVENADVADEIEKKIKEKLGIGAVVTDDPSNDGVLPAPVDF
# Arbovirus anti = antivirals against arbovirus infection, primary screen, cell-based, full library, 10K replicate subset; arbovirus infection cell-based antiviral screen; inhibition, % at 10 µM; 0.37% of 200,000 active; AID 1251, 2008;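 active = inhibition from about 30%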;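 note: bluetongue infection of BSR cells; cell survival read as ATP light after 72 h; 0% = infected wells without compound and 100% = uninfected wells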
# Mtb bLac sens = beta-lactam sensitization of Mtb H37Rv, H37Rv; inhibition, % at 25 µM; 0.27% of 330,000 active; M. tuberculosis H37Rv growth with meropenem, percent inhibition; hits of this screen are not shown here;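 active = about 74% or more and at least 40 points above the plate without the antibiotic, then above 30% in a dose series; inconclusive = first-round hits that could not be retested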;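 note: growth measured after seven days incubation then overnight dye step; 0% = bacteria only wells and 100% = bacteria with antibiotic; twin plates without the antibiotic show which effects depend on it; some results filed as inactive read as strong as hits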
# Mtb growth = M. tuberculosis H37Rv growth inhibitors, H37Rv strain (AID 1626) | 0.95% of 220,000 active | M. tuberculosis H37Rv growth inhibition; higher % means a stronger effect | inhibition, % at 10 µM; hits with a dose series show IC50 in µM;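 active = confirmed in a dose series; inconclusive = inhibition above 80% but not taken into the dose series; inactive = below 80% or under 30% at every dose of the series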;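 note: bacteria incubated seven days before Alamar blue readout; 0% = bacteria only wells and 100% = bacteria with antibiotic wells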
# Arbovirus anti repeat = second read-out of Arbovirus anti, no call of its own (marks repeat the call); inhibition, %; measured here: 10K subset replicate screen; many hits read low in the repeat;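 first of two repeat runs on a subset; 0% = infected and 100% = uninfected wells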
# * = called active by the depositor; ? = inconclusive; . = not tested or not shown. Only part of the results is shown, so the mix of outcomes need not match the whole.
SMILES,YopH PTP inh,RecA intein inh,Arbovirus anti,Mtb bLac sens,Mtb growth,others
Cc1cccc(OCC(=O)Nc2ccc3nc(C)sc3c2)c1,.,-0.9,0,74,89%,
CCN(CC)C(=O)c1cn(CCC#N)nc1-c1ccc2c(c1)OCCO2,.,1.3,-2,1,-6%,
COc1ccc(Cc2nc(-c3ccc(-n4cccc4)cc3)no2)cc1OC,5,5.8,7,-1,1%,Arbovirus anti repeat=12
COc1ccc(-c2onc3ccc(C(=O)/C=C/N(C)C)cc23)cc1,.,-1.6,.,4,.,
COc1cccc(C(=O)Cn2c(NCCO)nc3ccccc32)c1,-11,-0.4,5,5,-2%,
CC(C)=CC1C(C(=O)Nc2ccc(S(=O)(=O)N3CCOCC3)cc2)C1(C)C (stereo unspecified),.,-0.1,.,-3,.,
COc1cc(SC)ccc1C(=O)NCCCn1ccnc1,.,-3.0,.,-3,.,
COc1ccc(COc2ccsc2C(=O)Nc2ccc(Cl)c(Cl)c2)cc1,-15,-0.6,-13,-7,-4%,
O=C(Cc1cccs1)NCc1ccco1,-12,0.2,-4,-4,12%,
CN(CC(=O)O)S(=O)(=O)c1ccc2oc3ccccc3c2c1,.,-4.6,.,-7,.,
O=C(Nc1ccc(F)cc1)c1oc2ccccc2c1NC(=O)C1CC1,.,-2.6,.,?,.,
COc1ccc(CN(C)C(=O)COC(=O)c2c(-c3ccccc3Cl)noc2C)cc1,.,3.1,12,0,8%,
Cc1cc(C)c(C)c(S(=O)(=O)N2CCN(c3ccc(O)cc3)CC2)c1C,.,14,-19,-1,1%,
COc1cc(/C=N/NC(=O)c2cccc3ccccc23)cc(OC)c1O,.,-6.0,.,-2,.,
CC1=C(C(=O)OCC(Cl)(Cl)Cl)N2C(=O)C(NC(=O)Cc3ccccc3)C2SC1 (stereo unspecified),.,8.7,7,1,-3%,
COc1ccc(S(=O)(=O)N(C)c2ccc(C(=O)NC3CC3)cc2)cc1,.,1.4,.,-6,.,
CCOc1ccc(CN2CCN(Cc3cccc4nonc34)CC2CCO)cc1 (stereo unspecified),.,3.1,3,-4,3%,
COc1cc(OC)cc(C(=O)NC(C)CCc2ccccc2)c1 (stereo unspecified),.,1.0,.,1,.,
C=Cn1ccnc1P(=S)(c1c(C)nn(-c2ccccc2)c1C)c1nccn1C=C,-35,4.0,1,-8,3%,Arbovirus anti repeat=3
CCOC(=O)C1CCC2(CC1)C(C#N)=C(N)Oc1n[nH]c(C)c12 (stereo unspecified),-27,79*,5,-6,-12%,
CSc1ccc(-c2sc(Nc3ccccc3)n[n+]2-c2ccc(F)cc2)cc1,.,4.5,.,-12,.,
C/C(=N\NC(=S)NCc1ccccc1)c1ccccc1,-14,8.7,0,89,6%,
COc1cc(/C=C2\C(=O)N(c3ccccc3)N=C2C)ccc1Oc1ccc([N+](=O)[O-])cc1[N+](=O)[O-],1,.,-3,6,11%,
COc1ccc(NC(=O)Nc2ncccc2C)cc1,2,0.3,-5,0,-1%,
CCN(CC)C1=NC(=[N+](CC)CC)c2ccccc21,-8,-4.6,-3,-16,-3%,
O=C1CCC(=O)N1c1ccc(S(=O)(=O)Nc2cccc([N+](=O)[O-])c2)cc1,.,-3.1,.,-10,.,
COc1cccc(NC(=O)C(OC(=O)c2ccc([N+](=O)[O-])o2)c2ccccc2)c1 (stereo unspecified),-12,8.2,-1,16,2%,
Cc1nnc(NC(=O)CSc2nc3ccccc3o2)s1,-13,-0.5,3,32,-1%,
CCc1ccc(NC(=O)C(C)Sc2nc(-c3ccco3)c(C#N)c(=O)[nH]2)cc1 (stereo unspecified),.,4.5,.,-3,.,
Cc1ccc(Oc2ccc(Cl)cc2NC(=O)c2ccc(F)cc2F)cc1,-34,1.9,-15,10,3%,
Cc1cc(=O)[nH]c(N2CCCC2)n1,-4,-0.1,5,-15,-5%,
CSc1nnc(NC(=O)c2cccc(S(=O)(=O)N3CCOCC3)c2)s1,.,2.1,.,-16,.,
CCOC(=O)c1nc(NCc2ccccc2)c2ccccc2n1,.,-0.6,-2,-3,-5%,
CCS(=O)(=O)c1nc(S(=O)(=O)c2ccc(Cl)cc2)c(NCCOC)s1,.,0.5,-1,4,0%,
CC1CCCC(C)N1C(=O)CSc1nnnn1-c1cccc2c1CCCC2 (stereo unspecified),-6,9.2,0,-11,-6%,
Cc1ccc(NC(=O)c2cccc(S(=O)(=O)N(C)C3CCCCC3)c2)nc1,.,2.6,.,-11,.,
COc1cc(C(=O)NCc2nnc(SCC(=O)NCc3ccco3)o2)cc(OC)c1OC,.,-3.6,.,-6,.,
COc1ccc(NC(=S)Nc2ccccc2Cl)cn1,.,-2.2,2,0,-7%,
O=C(Cc1ccccc1[N+](=O)[O-])NNC(=O)Nc1ccc2c(c1)OCO2,.,-7.2,.,-9,.,
CC(=O)c1sc(NC(=O)c2cccc(N3C(=O)CCC3=O)c2)nc1-c1ccccc1,.,-0.3,.,0,.,

# Quoted at random: four compounds from above.
SMILES,YopH PTP inh,RecA intein inh,Arbovirus anti,Mtb bLac sens,Mtb growth,others
CCS(=O)(=O)c1nc(S(=O)(=O)c2ccc(Cl)cc2)c(NCCOC)s1,.,0.5,-1,4,0%,
COc1cc(C(=O)NCc2nnc(SCC(=O)NCc3ccco3)o2)cc(OC)c1OC,.,-3.6,.,-6,.,
CC(=O)c1sc(NC(=O)c2cccc(N3C(=O)CCC3=O)c2)nc1-c1ccccc1,.,-0.3,.,0,.,
CC1CCCC(C)N1C(=O)CSc1nnnn1-c1cccc2c1CCCC2 (stereo unspecified),-6,9.2,0,-11,-6%,

# More compounds
SMILES,YopH PTP inh,RecA intein inh,Arbovirus anti,Mtb bLac sens,Mtb growth,others
Brc1ccc(C2NCCS2)cc1 (stereo unspecified),.,-8.2,5,-10,.,
O=C(NC(=S)N1CCN(c2ccc([N+](=O)[O-])cc2Cl)CC1)c1ccco1,-24,1.2,3,10,?,
CCn1c(C)cc(C=C2C(=O)c3ccccc3C2=O)c1C,.,2.0,-10,.,-2%,
CCOC(=O)C1CCCN(Cc2cccs2)C1 (stereo unspecified),-1,-0.7,5,2,2%,
CCC(=O)N1CCN(c2ccc(NC(=O)c3ccccc3)cc2)CC1,.,0.3,-3,2,-4%,
Cc1ccccc1CSc1nnc(NC(=O)Cc2cccs2)s1,-16,-0.6,0,7,-4%,
O=C1CCC(C(=O)OCc2cc(Cl)ccc2OC(F)F)N1 (stereo unspecified),-20,1.4,0,-7,2%,
COc1cccc(NC(=O)CSc2ccc(-c3sc(C)nc3C)nn2)c1,.,1.3,.,0,.,
Cc1cc(=O)[nH]n(CCO)c1=O,.,.,.,-6,-15%,
O=C(O)CCn1nnc2ccccc21,.,1.7,.,-1,-3%,
CCOC(=O)N1CCc2c(sc3nc[nH]c(=O)c23)C1,.,-1.8,.,-3,13%,
COc1cccc(C(=O)NCCSc2ccc(Br)cc2)c1,.,0.9,-9,-10,-1%,
CC(=O)Nc1cccc(NC(=O)Nc2cccc(Cl)c2C)c1,.,-1.2,-5,-2,-5%,
Cc1ccccc1N1C(=O)CC(c2c[nH]c3ccccc23)C1=O (stereo unspecified),.,3.9,-1,-1,1%,
O=C1c2ccccc2C(Nc2ccc3nc(-c4cccnc4)[nH]c3c2)N1Cc1ccco1 (stereo unspecified),-22,-0.7,-14,2,44%,
Cc1cc(C)c(S(=O)(=O)NCc2ccc3c(c2)cc(C)n3C)c(C)c1,-38,3.8,-21,-6,9%,
COc1ccc(CNC(=O)C2(CC3CC(c4ccccc4)=NO3)CCN(C(=O)CCCCCBr)CC2)cc1 (stereo unspecified),.,1.6,.,-10,10%,
CCOc1ccc(C(=O)NC2CCN(C(=S)Nc3ccccc3C)CC2)cc1,.,-0.7,4,2,0%,
Cc1cc(-c2nc3ncccc3o2)ccc1NC(=O)CC(C)C,-14,-3.8,-1,-4,5%,Arbovirus anti repeat=-3
Cc1c(Cl)cccc1NC(=O)CC1SC(=NCC2CCCO2)NC1=O (stereo unspecified),-38,-1.6,-4,-1,-13%,
CC(C)(C)c1ccc2c(c1)C(=O)c1ccccc1C2=O,-36,6.7,-2,10,7%,
NC(=O)CSP(=O)(c1ccccc1)c1ccccc1,-5,.,1,-6,5%,
O=C(Oc1ccc(C(=S)N2CCOCC2)cc1)c1cccc([N+](=O)[O-])c1,.,-0.6,.,-9,.,
Cc1c(-c2ccccc2)sc(Br)c1C(=O)N1CCOCC1,-17,-1.9,3,92,10%,
O=S(=O)(Nc1nc2ccccc2nc1NCc1ccco1)c1cccs1,12,1.4,8,-2,2%,
CC(=O)Nc1cccc(NC(=O)CSc2nc(=O)n3cccc(C)c3n2)c1,.,-1.5,.,2,.,
C[n+]1cn(Cc2cc(Cl)ccc2OC(F)F)c2ccccc21,.,0.4,.,-7,.,
COc1ccc(C(CC(=O)O)NC(=O)COc2cc(C)ccc2C)cc1OC (stereo unspecified),.,-1.3,-3,-6,1%,
O=C(c1c(F)cccc1F)N1CCCC1,.,-2.5,2,0,-1%,
Cc1ccc(Nc2nc3ccccc3n3cnnc23)cc1C,.,0.0,.,5,.,
CCC(c1nnnn1CCOC)N(Cc1cc2c(C)cc(C)cc2[nH]c1=O)CC1CCCO1 (stereo unspecified),-10,-1.2,2,11,-5%,
COc1cccc(/C=N/NC(=O)CN(C2=NS(=O)(=O)c3ccccc32)c2ccccc2)c1,-33,0.6,10,0,10%,
CCN(C(=O)CSc1nnc(Nc2ccccc2)s1)C1CCS(=O)(=O)C1 (stereo unspecified),.,-6.3,-2,-8,0%,
S=c1[nH]nc(-c2ccco2)n1/N=C/c1ccc(Cl)cc1,-5,1.2,19,3,6%,
O=C(Nc1ccccc1)N(C1=NCCC1)c1ccc(OC(F)F)cc1,-4,0.7,-2,68,-3%,
COc1ccc(N2CC(C(=O)NCCc3ccc(Cl)cc3)CC2=O)cc1 (stereo unspecified),.,-1.6,.,-8,.,
COC(=O)C1=NN[C@H](C(=O)OC(C)(C)C)[C@H]1c1ccccc1,-29,1.5,5,0,-2%,
O=C(Nc1ccc2oc(-c3ccccc3)nc2c1)c1cc(-n2cnnc2)ccc1Cl,.,-34,0,61,8%,
CCC(C)c1nc2c(c(N3CCC3=O)c1-c1ccccc1)CCCC2 (stereo unspecified),.,5.5,.,5,1%,
Cc1ccc(NC(=O)NCc2nc3ccccc3n2C)cc1,.,0.0,.,-3,.,

# Five consecutive compounds already listed, for reference:
SMILES,YopH PTP inh,RecA intein inh,Arbovirus anti,Mtb bLac sens,Mtb growth,others
COc1ccc(N2CC(C(=O)NCCc3ccc(Cl)cc3)CC2=O)cc1 (stereo unspecified),.,-1.6,.,-8,.,
COC(=O)C1=NN[C@H](C(=O)OC(C)(C)C)[C@H]1c1ccccc1,-29,1.5,5,0,-2%,
O=C(Nc1ccc2oc(-c3ccccc3)nc2c1)c1cc(-n2cnnc2)ccc1Cl,.,-34,0,61,8%,
CCC(C)c1nc2c(c(N3CCC3=O)c1-c1ccccc1)CCCC2 (stereo unspecified),.,5.5,.,5,1%,
Cc1ccc(NC(=O)NCc2nc3ccccc3n2C)cc1,.,0.0,.,-3,.,

# Further entries follow.
SMILES,YopH PTP inh,RecA intein inh,Arbovirus anti,Mtb bLac sens,Mtb growth,others
N/C(Cc1ccc([N+](=O)[O-])cc1)=N\OC(=O)Cc1ccccc1,-3,3.0,-1,-1,17%,
Cc1cc(C)c2nc(-c3cccc(Cl)c3)c(C)c(C(=O)N3CCOCC3)c2c1,.,8.4,.,97,.,
CC1=CC(=O)[C@H]2C(C)(C)CCC[C@]2(C)[C@@]1(O)CO,.,-0.4,5,-7,-5%,
Nc1ccc(O)c2c(=O)cc(-c3ccccc3Cl)oc12,-32,-4.8,-10,-1,-8%,
Cc1ccc2oc(-c3cccc(NC(=O)c4ccc(Br)o4)c3)nc2c1,-2,-0.6,-8,-24,.,
NC(=S)N/N=C/c1coc2ccc(O)cc2c1=O,.,-3.8,.,-4,-7%,
CC(=O)c1cccc(OCc2cc(C(=O)N(C)CCc3cnn(C)c3)no2)c1,.,-0.5,.,-3,.,
COc1ccccc1CNC(=O)c1cnccn1,-47,-7.7,4,-2,1%,
O=C(O)CC(C(=O)N(c1ccccc1)c1ccccc1)N1CCOCC1 (stereo unspecified),-43,2.1,-1,-4,-8%,
FC(F)(F)c1cc(N2CCOCC2)nc(-c2ccccc2)n1,-24,-0.3,15,4,8%,
Clc1ss/c(=N\c2ccccn2)c1Cl,-21,2.8,-4,4,4%,Arbovirus anti repeat=0
Cc1nc(C(=O)NNC(=O)c2c(-c3c(Cl)cccc3Cl)noc2C)cs1,.,15,.,26,-5%,
CCC(C(=O)N1CCOCC1)n1nc(C)n2c(cc3cc(C)ccc32)c1=O (stereo unspecified),.,3.3,.,1,.,
O=c1[nH]cnc2c1c(-c1ccccc1)cn2-c1ccc(F)cc1,-29,-1.2,-19,15,21%,
